# RVFV N-RNA inh: inhibitors of RVFV nucleoprotein–RNA binding, primary screen, biochemical, fluorescence polarization | P21700 | RVFV N-RNA binding; active compounds read low | % bound, % (test concentration not listed) | actives 0.1% (n = 20,000) | AID 651828, 2012;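 active = between 0 and 58% in either replicate with normal brightness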;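 also: 100 nL library stock added to about 12 µL; 100% = protein and probe without compound and 0% = probe alone; numbers are from one replicate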
# Target sequence (P21700 whole entry, looked up): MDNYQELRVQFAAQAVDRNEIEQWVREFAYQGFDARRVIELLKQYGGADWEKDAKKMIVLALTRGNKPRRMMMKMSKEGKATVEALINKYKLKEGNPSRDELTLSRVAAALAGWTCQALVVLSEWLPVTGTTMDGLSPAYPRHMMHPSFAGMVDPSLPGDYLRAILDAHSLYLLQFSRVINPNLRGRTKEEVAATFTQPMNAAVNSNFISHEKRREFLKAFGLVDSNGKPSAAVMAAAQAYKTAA
# The depositor's hits bear a star; & = joins results of further samples. The list is partial; rates above refer to the full screens.
smiles	RVFV N-RNA inh
COc1ccc(/C=C/c2nc(NCCCN(C)C)c3ccccc3n2)cc1	92
CC(C)(C#N)c1cc(Cn2cncn2)cc(C(C)(C)C#N)c1	93&102
Cc1cc(C)c(C#N)c(SCCCCSc2nc(C)cc(C)c2C#N)n1	96
O=C1N/C(=C/c2ccco2)C(=O)N1c1cccc(Cl)c1	91
Cc1cc(Cl)c(S(=O)(=O)N2CCSCC2)cc1OCC(N)=O	98
Brc1c(Br)c(Br)c2[nH]cnc2c1Br	100
O=C(NCCc1ccccc1)c1cnc2sccn2c1=O	93
CCOC(=O)N1CCN(c2ccc(Cl)c(Cl)c2)CC1	92
C=CCSC1=N/C(=C\C=C\c2ccco2)C(=O)S1	93
CCCCc1nc(-c2ccc(OCC)c(OC)c2)no1	107
Cc1cnc(=O)[nH]c1SCc1ccc(Cl)cc1	101
O=C(/C=C/c1ccccc1)NCC1CCCO1 (stereo unspecified)	100
COC(=O)CCNc1ccc2ccccc2c1	93
Cc1c(Cc2ccccc2)c(=O)oc2cc(OC(=O)c3ccco3)ccc12	82
COc1nc(N(C)C)nc(N(C)C)n1	109
S=C(N/N=C/c1cccs1)N/N=C/c1cccs1	98
Cc1ccc(-n2cnc3cc(N=Cc4nc5ccccc5n4C)ccc32)cc1	96
c1ccc2c(c1)CCCN2c1nc(N2CCOCC2)nc(N2CCOCC2)n1	107
C/C(=N\NC(=O)COc1cccc(C)c1)c1ccco1	95
CNC(=O)c1c(NC(=O)CC2SC(=O)NC2=O)sc2c1CCCC2 (stereo unspecified)	98
N#CC1=C(N)Oc2n[nH]c(-c3ccccc3)c2C1c1ccoc1 (stereo unspecified)	95
COC(=O)c1c(O)cn(-c2ccc(C)c(C)c2)c1C	96
O=C(O)c1cc(-c2ccccc2)nc2ccccc12	101
CCN(CC)c1ccc(Nc2ncnc3ccccc23)cc1	96
Fc1cccc(F)c1CN1CC=CCC1	87
CN1C(=O)NC(=O)/C(=C/c2ccco2)C1=O	92
CN1C(=O)C(=C2C=C(c3ccccc3)OC3=C2CCCC3)C(=O)N(C)C1=O	93
CNC(=O)O/N=C(\N)c1nn(C(=O)NC)cc1Br	91
CCCCC(=O)Nc1ccc(C(=O)NCc2ccc(S(N)(=O)=O)cc2)cc1	91
CC(C)c1ccc(NC(=O)CNS(=O)(=O)c2ccccc2)cc1	95
CCN1CCN(Cc2coc3ccccc3c2=O)CC1	97
CC(C)C(NC(=O)c1cccs1)C(=O)Nc1nc2ccccc2s1 (stereo unspecified)	96
O=C(NN=C1CCCCC1)c1ccccc1	94
CCC(CO)NC(=O)c1snnc1C (stereo unspecified)	94
Fc1cccc(CN2CCc3c([nH]c4ccccc34)C2)c1	103
CCON1C(=O)NC(c2cc(F)ccc2C)(C(F)(F)F)C1=O (stereo unspecified)	102
NS(=O)(=O)c1ccc(NC(=O)Nc2ccccc2)cc1	91
O=C1CSCC(=O)N1c1ccc(Cl)cc1	93
CCOC(=O)CSc1nc2c(c(=O)[nH]1)C1(CCCC1)Cc1ccccc1-2	92
CCOC(=O)c1cc(C)n(-c2cccc(F)c2C#N)n1	90
CC1=C(CCN2CCN(CCO)CC2)C(C)(C)CCC1	91
CCn1nnc2c(Nc3ccc(Cl)c(Cl)c3)ncnc21	91
Cc1noc(C)c1C(=O)NCc1ccc(S(N)(=O)=O)cc1	98
Ic1ccc(OCCCCn2ccnc2)cc1	95
O=C(NNc1nc2cc3c(cc2s1)OCCO3)c1ccc(F)cc1	82
CCN(Cc1ccccc1)S(=O)(=O)c1cn(C)c(=O)n(C)c1=O	96
CC(C)(C)C(=O)Nc1c2c(nn1-c1cccc(Cl)c1)CSC2	94
Cc1ccc(C=C2C(=O)OC(C)(C)OC2=O)s1	93
Cc1ccc(OC(C)C(=O)NCCCN2CCOCC2)cc1C (stereo unspecified)	93
CSc1sc(C(=O)O)c(-c2ccccc2Cl)c1C#N	109
O=C(Nc1cc(N2CCCCC2)ncn1)NC1(C(F)(F)F)Oc2ccccc2O1	96
CCCN(CCC)S(=O)(=O)Cc1ccccc1Cl	95
C=CCc1cccc(/C=N/NC(=O)c2ccccc2)c1O	87
CC(C)CN1C(=O)c2ccc(C(=O)NCc3ccccn3)cc2C1=O	97
O=C(CCS(=O)(=O)Cc1ccccc1)Nc1ccc(F)cc1F	94
COC(=O)c1sc(Nc2ccccc2)nc1C	84
CCCCOc1cccc2c1CCN(C)C2=O	95
COc1cccc(CN2CCN(Cc3ccccc3)CC2)c1	96
CCCS(=O)(=O)c1csc(C(=O)OC)c1NNC(=O)C(C)C	92
COCCOc1cc2nc[nH]c(=O)c2cc1OCCOC	94&77

# Other records follow:
smiles	RVFV N-RNA inh
COc1ccc(NC(=O)Nc2cn(C)c3ccccc23)c(OC)c1	98
O=C1OC(N2CCN(Cc3ccc4c(c3)OCO4)CC2)c2ccccc21 (stereo unspecified)	109
COc1ccc(Oc2ncnc3c2cnn3-c2ccccc2)cc1	91
O=C(NCNC(=O)c1ccccc1)c1ccccc1	88
Cc1cc(N2C(=O)C3C4c5ccccc5C(c5ccccc54)C3C2=O)no1 (stereo unspecified)	95
CCCC1Nc2ccc(C(=O)O)cc2C2C=CCC12 (stereo unspecified)	88
O=C(CS(=O)(=O)c1ccccc1)N(Cc1ccccn1)c1nc2ccccc2s1	98
O=C(N[C@@H](Cc1ccccc1)C(=O)CCl)OCc1ccccc1	97
NNC(=O)/C(=C/c1ccccc1)NC(=O)c1ccccc1	88
C/C=C(\C)CN1CCN(c2ccccc2)CC1	90
CN1C(=O)COc2c(C(=O)NC3CN4CCC3CC4)cc(Cl)cc21 (stereo unspecified)	95
Cc1ccc(C)c2c1c1ccccc1n2C	94
COC(=O)CN1CCN(c2nc3c(c(=O)[nH]c(=O)n3C)n2Cc2ccc(Cl)c(Cl)c2)CC1	89
CCCC(=O)NC(=S)Nc1cc(-c2nc3cc(CC)ccc3o2)ccc1C	93
N#Cc1cccnc1NNC(=O)Nc1cccc2ccccc12	94
CCCCN1CC(O)=C(c2ccccc2)C1=N	92
COc1cc(CN2CCN(C(=O)Cc3ccccc3)CC2)cc(OC)c1OC	102
COc1cc(C=Nc2ccccc2)cc(OC)c1O	107
CCc1nc2c(c(=O)c3ccccc3n2C)c(=O)n1Cc1ccco1	105
Cc1nn(-c2ccc(F)cc2)c2ncc(C(=O)N3CCN(C(=O)c4ccco4)CC3)c(Cl)c12	96
C=CCNC(=O)C1CC=CCC1C(=O)Nc1ccccc1C (stereo unspecified)	104
Cc1cccc(CSC2=NCCN2C(=O)C2CC2)c1	97
O=C(c1ccccc1)N(C(=O)N1CCCCC1)c1ccccc1	92
O=C(COc1ccc(Cl)cc1Cl)Nc1nnc(C2=COCCO2)o1	94
O=C(O)CCNC(=O)c1ccccc1	92
[O-]/[N+](Cc1ccccc1)=N\OCc1ccccc1	89
CC(NCCC(=O)O)c1ccccc1 (stereo unspecified)	112
CCN1CCN(C2CC(=O)N(CC)C2=O)CC1 (stereo unspecified)	96
CCc1c(C)[nH]n(CCC#N)c1=O	90
Cc1cc(O)cc(=O)n1C	95
O=C(NC(=S)Nc1ccc2c(c1)OCO2)c1ccccc1	98
Cc1cccc(-c2[nH]c(C(C)(C)C)nc2-c2ccc3c(c2)OCO3)n1	92
CC1CN(C(=O)/C=C/c2ccc3c(c2)OCO3)CC(C)O1 (stereo unspecified)	98
O=C(NCCCO)c1ccncc1	95
CSc1n[nH]c2nc3c(c(=O)n12)C1(CCCC1)Cc1ccccc1-3	99
C=C(C)Cc1c(COC)nc(-c2ccc(C)c(Cl)c2)nc1OC(=O)N(C)C	94
CC12CN(NC=O)C3(C#N)CC1CCC23C (stereo unspecified)	99
O=C1CC(c2ccccc2)Oc2ccc(F)cc21 (stereo unspecified)	101
O=C(O)c1ccccc1C(=O)N1CCN(c2ccncc2)CC1	97
O=C(O)c1cccnc1SC1CC(=O)N(c2ccc(Cl)cc2)C1=O (stereo unspecified)	95
CCOC(=O)N1CCN(Cc2nc(N)nc(Nc3ccc(C)cc3)n2)CC1	92
COc1cc2c(cc1NS(=O)(=O)N1CCCCC1)oc1ccccc12	91
CCSc1nc2c(c(=O)n1CC)SCC2	99
Cc1c(=O)n(OCc2ccc(Cl)cc2)c2ccccc2[n+]1[O-]	99
c1ccc(Cn2nnnc2SCc2ccc(CSc3nnnn3Cc3ccccc3)cc2)cc1	103
CCC(O)c1cc2c(cc1NC(=O)c1cccs1)OCCO2 (stereo unspecified)	91
CC(=O)N1CCN(CCNC(=O)c2ccncc2)CC1	98
CCOc1ccc(NCc2nc3ccccc3n2C)cc1	97
Cc1noc(NC(=O)NC(=O)c2cc(F)c(N(C)C)c(F)c2)c1C	102
O=C(O)c1cc(=O)c2c(OCC(O)COc3cccc4oc(C(=O)O)cc(=O)c34)cccc2o1	93&92
C=CCn1c(Cc2csc(N)n2)nnc1SCc1ccc(C(=O)OC)cc1	90
Nc1cc(=O)[nH]c(SCc2ccccc2Cl)n1	97
COC(=O)CC(=O)CSc1nc2c(cc1C#N)CCC2	105
c1ccc(Nc2nnc(-c3cccc4ccccc34)o2)cc1	97
O=C(Nc1ccc(Cl)cc1)C(O)c1ccccc1 (stereo unspecified)	98
Cc1oc(C(=O)O)cc1COc1ccccc1Cl	90
CC1CN(C(=O)C2CCCO2)CC(C)O1 (stereo unspecified)	94
CC(N)(C(=O)O)c1ccc(C(=O)O)cc1 (stereo unspecified)	98
COC(=O)COc1cccc2c(=O)n(CC(=O)N3CCCc4ccccc43)ccc12	91
CN1C(CCl)Nc2cc(Cl)c(S(N)(=O)=O)cc2S1(=O)=O (stereo unspecified)	99

# Continued, starting with the last 11 of the part before.
smiles	RVFV N-RNA inh
O=C(O)c1cc(=O)c2c(OCC(O)COc3cccc4oc(C(=O)O)cc(=O)c34)cccc2o1	93&92
C=CCn1c(Cc2csc(N)n2)nnc1SCc1ccc(C(=O)OC)cc1	90
Nc1cc(=O)[nH]c(SCc2ccccc2Cl)n1	97
COC(=O)CC(=O)CSc1nc2c(cc1C#N)CCC2	105
c1ccc(Nc2nnc(-c3cccc4ccccc34)o2)cc1	97
O=C(Nc1ccc(Cl)cc1)C(O)c1ccccc1 (stereo unspecified)	98
Cc1oc(C(=O)O)cc1COc1ccccc1Cl	90
CC1CN(C(=O)C2CCCO2)CC(C)O1 (stereo unspecified)	94
CC(N)(C(=O)O)c1ccc(C(=O)O)cc1 (stereo unspecified)	98
COC(=O)COc1cccc2c(=O)n(CC(=O)N3CCCc4ccccc43)ccc12	91
CN1C(CCl)Nc2cc(Cl)c(S(N)(=O)=O)cc2S1(=O)=O (stereo unspecified)	99
O=c1c(-c2ccc(O)cc2)coc2cc(O)ccc12	99
COc1ccc(OC)c(C2c3cccn3CCN2S(=O)(=O)c2ccccc2C(F)(F)F)c1 (stereo unspecified)	107
C#CCSc1n[nH]c(C(C)(C)C)n1	99
COc1ccc(/C=C/C(=O)NC2CC2)cc1	105
CCCN(C(=O)c1ccccc1N)c1c(C)n(C)n(-c2ccccc2)c1=O	101
CCOC(=O)N1CCN(CC(=O)c2ccc(O)c(C)c2O)CC1	105
COc1ccc(OC(=O)Nc2ccccc2)cc1	97
O=C(/C=C/c1ccco1)NC(=S)NC12CC3CC(CC(C3)C1)C2	97
CC(=O)OCC1OC(OC(C)(C)C)C(OC(C)=O)C(OC(C)=O)C1OC(C)=O (stereo unspecified)	78
CCC(=O)N=c1sc2cc(S(N)(=O)=O)ccc2n1CCOC	108
Cc1ccc(N2CC(C(=O)Nc3ccc(S(=O)(=O)NC4CCCCC4)cc3)CC2=O)cc1 (stereo unspecified)	96
CCCCC(=O)Nc1nnn(CCC)n1	86
COc1cc(CNC(=O)CCCC/C=C\C(C)C)ccc1O	93
O=C1C2CNC3(C(=O)Nc4ccccc43)C2C(=O)N1Cc1ccccc1 (stereo unspecified)	83
Cc1ccc(S(=O)(=O)NC(C)C(=O)N2CCN(c3cccc(Cl)c3)CC2)cc1 (stereo unspecified)	96
O=c1cc(-c2ccccc2)nc(N2CCN(Cc3ccc4c(c3)OCO4)CC2)[nH]1	101
C/C(=N\NC(=O)Cn1nnc(-c2ccccc2)n1)c1nonc1C	97
Cc1ccc(C(CC(=O)N2CCOCC2)c2ccccc2)c(O)c1C (stereo unspecified)	93
CC1=C(C(=O)OC2CCCC2C)C(c2ccc(Cl)cc2)NC(=O)N1 (stereo unspecified)	87
CC(=O)Nc1ccc(NC(=O)C2CCCCN2C(=O)C2CCC(C)CC2)cc1 (stereo unspecified)	95
NS(=O)(=O)c1ccc(N=Nc2c(O)[nH]c3ccc(Br)cc23)cc1	100
Fc1ccccc1COc1cccc2cccnc12	104
COc1ccc(C2=NN(CCc3ccccn3)C(=O)C2)cc1	108
C=C1C2(C(=O)N3CCc4ccccc43)CCC(C2)C1(C)C (stereo unspecified)	98
O=C(NC(=O)N1CCCC1)c1ccc(Cl)cc1	100
O=C(CSc1nnc(C23CC4CC(CC(C4)C2)C3)o1)NCCOc1ccccc1	95
CNC(=O)c1ccsc1NC(=O)c1ccc(F)cc1	96
O=C(NCC(c1ccco1)N1CCc2ccccc21)Nc1ccccc1 (stereo unspecified)	92
Cc1nnc(N2C(=O)C3C4C=CC(C4)C3C2=O)s1 (stereo unspecified)	96
N#CC1=C(c2ccc(Cl)cc2)COC1=O	102
CCN1CCC(NC2c3ccccc3-c3ccccc32)CC1	91
CCC(CO)N=CC1=C(O)CC(c2ccccc2)CC1=O (stereo unspecified)	97
O=C1CC(Nc2ccccc2)C(=O)N1Cc1ccccc1 (stereo unspecified)	106
CN(C)C(=S)c1nc2ccccc2[nH]1	93

# Source: PubChem BioAssay (ICCB-Longwood Screening Facility, Harvard Medical School)
